Assay outcomes deposited in PubChem by National Center for Advancing Translational Sciences (NCATS).
Methyltransferases – Primary Screen for Target Class Profiling of Small Molecule Inhibitors of Methyltransferases | purified enzyme, MTase-Glo SAH luminescence; stronger effect = lower value | calls only at 40 µM | 25,000 compounds, 3.9% hits | AID 1745853, 2022; active = -50% or lower on at least one of six enzymes; inconclusive = the cases between; inactive = as a rule above -30% on all six;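 note: enzymes were COMT GAMT GNMT HNMT NNMT and PNMT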
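Each enzyme was assayed with SAM and its substrate. SAH formation detected by MTase-Glo luminescence; single-point 40 uM screen[…].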
Calls only; i = inactive; ? = inconclusive; + = active, no number. % is set by controls: 0 for no effect and ±100 for the full control effect.

nr | Molecule | Methyltransferases
1 | Cc1noc(-c2cccs2)c1C(=O)NCc1ccco1 | i
2 | O=S(=O)(c1ccc(F)cc1)N1CCC(n2cnnc2-c2ccccc2)CC1 | i
3 | C/C=C1\[C@H](O[C@@H]2O[C@H](CO)[C@@H](O)[C@H](O)[C@H]2O)OC=C(C(=O)OCCc2ccc(O)cc2)[C@H]1CC(=O)OCCc1ccc(O)cc1 | i
4 | CCc1ccc(C(=O)Nc2cc(CN3CCN(C)CC3)cc(C(F)(F)F)c2)cc1C#Cc1cnc2ccnn2c1 | i
5 | Cn1c(=O)c2ccc(C(=O)NC3CCCCC3)cc2n2c(=O)n(Cc3ccc(F)cc3Cl)nc12 | i
6 | COc1ccccc1CN1C(=O)c2cc3occc3n2CC1(C)C(=O)NC1CCCCCC1 (stereo not given) | i
7 | O=c1[nH]c2ccc(S(=O)(=O)Nc3cccc(F)c3)cc2[nH]1 | i
8 | CCOC(=O)c1cc2n(n1)CC(C)(C(=O)NCc1ccccc1)N(Cc1cc(OC)ccc1OC)C2=O (stereo not given) | i
9 | Cc1nc2ccccc2n1CCNC(=O)CC[C@H]1NC(=O)c2ccccc2NC1=O | i
10 | COC(=O)c1cc2n(n1)CC(C)(C(=O)NC1CCCCCC1)N(c1cc(C)cc(C)c1)C2=O (stereo not given) | i
11 | CN(Cc1ccc2c(c1)OCO2)C(=O)C1(C)CCOCC1 | i
12 | O=C([C@@H]1C[C@H](F)CN1C(=O)c1ccc(Cl)cc1)N1CCCCC1 | i
13 | COc1ccc(C(=O)/C(Cc2cc(OC)c(OC)c(OC)c2)=C(\C(=O)O)c2ccc3c(c2)OCO3)cc1 | i
14 | O=C(NCc1ccccc1)c1csc(Nc2ccncn2)n1 | i
15 | COc1ccc(/C=C/C(=O)O[C@@H]2[C@@H](OC(C)=O)[C@@H](OC(C)=O)[C@H](O[C@H]3[C@@H]4C=CO[C@@H](O[C@@H]5O[C@H](CO)[C@@H](O)[C@H](O)[C@H]5O)[C@@H]4[C@@]4(CO)O[C@@H]34)O[C@H]2C)cc1 | i
16 | Cc1nn(CCO)cc1CN1CCN(C(=O)c2cc[nH]c2)CC(O)C1 (stereo not given) | i
17 | C#CCNCc1cc2cc(OCc3ccccc3)ccc2[nH]1 | i
18 | CC1(C(=O)NC2CCCC2)Cn2cnc(C(=O)NCCc3ccc(Cl)cc3)c2C(=O)N1C1CC1 (stereo not given) | i
19 | CN(C)C(=O)N1CCCn2nc(CNC(=O)C(=O)c3ccco3)cc2C1 | i
20 | CC(C)Cn1c(=O)c2cc(F)ccc2n2c(SCC(=O)Nc3ccccc3Cl)nnc12 | i
21 | C/C=C(\C)C(=O)O[C@H]1[C@@H](O[C@]2(COC(=O)CC(C)C)O[C@H](COC(=O)C(C)C)[C@@H](OC(C)=O)[C@@H]2O)O[C@H](COC(C)=O)[C@@H](O)[C@@H]1O | +
22 | COc1ccc2[nH]c(S(=O)Cc3ncc(C)c(OC)c3C)nc2n1 (stereo not given) | ?
23 | CC1(C)CC(=O)N(CCCCN2CCN(c3ncccn3)CC2)C(=O)C1 | i
24 | C[C@@H]1O[C@@H](O[C@@H]2[C@@H](O[C@@H]3O[C@@H](C)[C@H](O[C@@H]4OC[C@H](O)[C@H](O[C@@H]5OC[C@@H](O)[C@H](O)[C@H]5O)[C@H]4O)[C@@H](O[C@@H]4OC[C@](O)(CO)[C@H]4O)[C@H]3O)[C@H](OC(=O)[C@]34CCC(C)(C)C[C@H]3C3=CCC5[C@@]6(C)C[C@H](O)[C@H](O[C@@H]7O[C@H](CO[C@@H]8OC[C@H](O)[C@H](O)[C@H]8O)[C@@H](O)[C@H](O)[C@H]7O)C(C)(C)C6CC[C@@]5(C)[C@]3(C)C[C@H]4O)OC[C@H]2O)[C@H](O)[C@H](O)[C@H]1O (stereo not given in full) | i
25 | CCN1c2cc(C(=O)NCc3ccncc3)ccc2C(=O)N2CCCCC21 (stereo not given) | i
26 | C[C@@H]1C[C@H](C)CN(CCC(=O)Nc2ccc(Br)cc2)C1 | i
27 | O=C(NCc1ccccc1)c1ccc(-c2ccc(N3CCSCC3)nc2)cc1 | i
28 | COc1ccc2cc3n(c2c1)CC(C)(C(=O)NC1CCCC1)N(CCc1ccccc1)C3=O (stereo not given) | i
29 | Cc1ccc2c(c1)-c1nc(-c3ccc(Cl)cc3)cc(-c3coc4ccccc4c3=O)c1CO2 | ?
30 | O=C(NC1CCCN(c2cc(N3CCCC3)ncn2)C1)c1ccco1 (stereo not given) | i

5 records drawn at random from those above, as already listed:
nr | Molecule | Methyltransferases
7 | O=c1[nH]c2ccc(S(=O)(=O)Nc3cccc(F)c3)cc2[nH]1 | i
27 | O=C(NCc1ccccc1)c1ccc(-c2ccc(N3CCSCC3)nc2)cc1 | i
11 | CN(Cc1ccc2c(c1)OCO2)C(=O)C1(C)CCOCC1 | i
16 | Cc1nn(CCO)cc1CN1CCN(C(=O)c2cc[nH]c2)CC(O)C1 (stereo not given) | i
5 | Cn1c(=O)c2ccc(C(=O)NC3CCCCC3)cc2n2c(=O)n(Cc3ccc(F)cc3Cl)nc12 | i

Arranged by SMILES length (ascending): 3 of the compounds above
nr | Molecule | Methyltransferases
30 | O=C(NC1CCCN(c2cc(N3CCCC3)ncn2)C1)c1ccco1 (stereo not given) | i
5 | Cn1c(=O)c2ccc(C(=O)NC3CCCCC3)cc2n2c(=O)n(Cc3ccc(F)cc3Cl)nc12 | i
3 | C/C=C1\[C@H](O[C@@H]2O[C@H](CO)[C@@H](O)[C@H](O)[C@H]2O)OC=C(C(=O)OCCc2ccc(O)cc2)[C@H]1CC(=O)OCCc1ccc(O)cc1 | i

Further entries:
nr | Molecule | Methyltransferases
31 | Cc1nc(-c2c3n(c(=O)n(CC(=O)NCc4cccs4)c2=O)CCCCC3)no1 | i
32 | CCCn1c(=O)c2ccc(C(=O)NC(C)C)cc2n2c(SCc3ccc(C)cc3)nnc12 | i
33 | CC(CNC(=O)CCn1ccc2cc(S(=O)(=O)N3CCCC3)ccc21)c1ccccc1 (stereo not given) | i
34 | O=C(CSc1nnc2[nH]c(=O)c(-c3ccc(Cl)cc3)nn12)Nc1cccc(F)c1 | i
35 | CCS(=O)(=O)Nc1ccc(C)n(CC(=O)N(C)Cc2ccccc2)c1=O | i
36 | COCCN1C(=O)c2cccn2CC1CNS(=O)(=O)Cc1ccccc1 (stereo not given) | i
37 | C[C@@H]1CN(C(=O)NCC2CCCCC2)CC[C@@]1(O)C1CCOCC1 | i
38 | CC(C)c1ccc(N2C(=O)c3cc(-c4ccco4)nn3CC2(C)C(=O)NC2CCCCCC2)cc1 (stereo not given) | i
39 | COc1ccc(OC)c(CNC(=O)C2(CCO)CC23CCOCC3)c1 (stereo not given) | i
40 | CCc1c(Cl)c(O)c(Cl)c(O)c1C(=O)O[C@H]1[C@H](O)[C@H](OC)[C@H](OC/C2=C\C=C\C[C@H](O)/C(C)=C\[C@H](CC)[C@@H](O[C@@H]3OC(C)(C)[C@@H](OC(=O)C(C)C)[C@H](O)[C@@H]3O)/C(C)=C/C(C)=C/C[C@@H]([C@@H](C)O)OC2=O)O[C@@H]1C | +
41 | CC(C)c1noc(-c2cn(C3CCN(C(=O)c4ccc(Cl)s4)C3)nn2)n1 (stereo not given) | i
42 | Cc1ccc(CNC(=O)C2(C)Cn3c(nc4ccccc43)C(=O)N2Cc2cccc(C)c2)cc1 (stereo not given) | i
43 | C[C@H]1C(=O)N2c3ccccc3[C@@]3(O)C[C@@H]4C(=O)N[C@](C)(c5nc6ccccc6c(=O)n54)N1[C@@H]23 | i
44 | Clc1ncoc1-c1c[nH]c2ccccc12 | i
45 | CN1CCCC1c1nc(C2CN(S(=O)(=O)Cc3ccccc3F)C2)no1 (stereo not given) | i
46 | CC(C)n1cc(CN2CCC(CO)(Cc3ccccc3Cl)CC2)cn1 | ?
47 | CC(=O)OC1C(O)C(C)(O)C(/C=C/C(=O)O)C2(C)CCCC(C)(C)C12 (stereo not given) | i
48 | CCCCN1C(=O)c2cc(C(=O)Nc3cccc(OC)c3)nn2CC1(C)C(=O)NC1CCCC1 (stereo not given) | i
49 | O=C(NCc1ccc(F)cc1)c1ccc2c(=O)nc3c(-c4ccc(F)cc4)n[nH]n3c2c1 | i
50 | COc1ccccc1CNS(=O)(=O)c1ccc2[nH]c3c(c2c1)CCCC3 | i
51 | O=C(C[C@@H]1C(C(=O)O)=CO[C@@H](O[C@@H]2O[C@H](CO)[C@@H](O)[C@H](O)[C@H]2O)/C1=C\CO)OCCc1ccc(O)c(O)c1 | i
52 | O=C1CN(Cc2ccccc2F)S(=O)(=O)c2ccccc2N1Cc1ccccc1 | i
53 | COc1ccc(C)cc1NC(=O)CCC[C@@H]1[C@H]2CCCN3CCC[C@@H](CN1C)[C@@H]23 | i
54 | CN(c1ccccc1)c1cc(=O)c2ccnc(NCC3CCOCC3)c2o1 | ?
55 | Cc1c(Cl)cccc1N1C(=O)c2cc(C(C)(C)C)nn2CC1(C)C(=O)NCc1ccccc1 (stereo not given) | i
56 | COc1cccc(CN2Cc3cc(NC(=O)c4ccc(F)cc4F)ccc3OC(C)C2=O)c1 (stereo not given) | i
57 | COc1cccc(CN2CCCC3(CCN(C(=O)c4cnc(C)cn4)C3)C2)c1 (stereo not given) | i
58 | CC(C)c1ccc(NC(=O)c2cc3n(n2)CC(C)(C(=O)NC2CCCCCC2)N(C)C3=O)cc1 (stereo not given) | i
59 | COc1cccc(CN2C(=O)c3cc4sccc4n3CC2(C)C(=O)NC2CCCCCC2)c1 (stereo not given) | i
60 | CCOc1ccc(CN2C(=O)c3oc4ccccc4c3OCC2(C)C(=O)NC2CCCC2)cc1 (stereo not given) | i
61 | Cc1cc(C)n(CC(=O)N2CCC(c3nc(CCOCC4CCCC4)no3)C2)n1 (stereo not given) | i
62 | CCOc1ccccc1CN1C(=O)c2ccc(-c3ccco3)n2CC1(C)C(=O)NC1CCCCC1C (stereo not given) | i
63 | O=C(Cc1c(F)cccc1F)Nc1cc(OCc2ccc(Cl)cc2)ccn1 | i
64 | CCC/C=C/C(=O)O[C@H]1CC(C)(C)CC2[C@]13[C@H](O)O[C@@]21CCC2[C@@]4(C)CC[C@H](O[C@@H]5O[C@H](C(=O)O)[C@@H](O)[C@H](O[C@@H]6O[C@H](CO)[C@H](O)[C@H](O)[C@H]6O[C@@H]6O[C@@H](C)[C@H](O)[C@@H](O)[C@H]6O[C@@H]6OC[C@](O)(CO)[C@H]6O)[C@H]5O[C@@H]5O[C@H](CO)[C@H](O)[C@H](O)[C@H]5O)C(C)(C)C4CC[C@@]2(C)[C@]1(C)C[C@H]3OC(C)=O (stereo not given in full) | i
65 | C=C(C(=O)OC)C1C(O)CC2(C)C(O)CCC(=O)C2C1O (stereo not given) | i
66 | Cn1cc(C(=O)N2C[C@@H](C(=O)O)[C@H](c3cccc(F)c3)C2)c(=O)[nH]c1=O | i
67 | CC(C)[C@](O)(c1ccc2cc(OC(F)F)c(OC(F)F)cc2c1)c1cn[nH]n1 | i
68 | Cc1cc(C)cc(N2C(=O)c3cc(C(C)(C)C)nn3CC2(C)C(=O)NCc2ccccc2)c1 (stereo not given) | i
69 | CCC(C)NC(=O)c1ccc2c(=O)n(C(C)C)c3nn(CC(=O)Nc4ccccc4Cl)c(=O)n3c2c1 (stereo not given) | i
70 | O=C1N[C@@H](Cc2cccs2)C(=O)N2CC[C@H](NS(=O)(=O)c3cccs3)C[C@@H]12 | i
71 | COCCn1c(CN(C)Cc2sccc2C)cnc1S(=O)(=O)CC1CCCCC1 | i
72 | COc1ccc(NC(=O)N2C[C@@H]3C[C@H](C2)c2c(NC(=O)C4CCCCC4)ccc(=O)n2C3)cc1 | i
73 | NC(=O)c1cnccn1 | i
74 | Cc1nc([C@@H]2CN(Cc3ccc(C(F)(F)F)cc3)C[C@H]2C(N)=O)n[nH]1 | i
75 | CC(=O)c1ccc(NC(=O)N2C[C@@H]3C[C@H](C2)c2ccc(NC(=O)c4ccc(F)cc4)c(=O)n2C3)cc1 | i
76 | Cc1ccccc1NC(=O)Cn1nc2n(CCC(C)C)c(=O)c3ccc(C(=O)NCC(C)C)cc3n2c1=O | i
77 | CN(C)Cc1nnc(C2CCN(C(=O)CCNS(C)(=O)=O)CC2)n1C | i
78 | Cc1noc(C)c1S(=O)(=O)NCCc1noc(-c2ccccc2)n1 | i
79 | CCOC(=O)c1cc2n(n1)CC(C)(C(=O)NCc1ccc(C)cc1)N(c1cccc(F)c1)C2=O (stereo not given) | i
80 | CCCn1c(=O)c2ccc(C(=O)NC3CCCCC3)cc2n2c(=O)n(Cc3ccc(Cl)cc3)nc12 | i
81 | CCC(C)NC(=O)c1ccc2c(=O)n(C)c3nnc(SCC(N)=O)n3c2c1 (stereo not given) | i
82 | Fc1cccc(-c2nnn3c2nc(NCc2ccc4c(c2)OCO4)c2ccccc23)c1 | i
83 | O=C(NCc1nnc2n1CCCC2)[C@H]1CNC[C@H](C(=O)N2CCOCC2)C1 | i
84 | COc1ccccc1Oc1ncccc1CNCc1c(F)cccc1Cl | i
85 | CN(C)CCOC(C)(c1ccccc1)c1ccc(Cl)cc1 (stereo not given) | +
86 | CC1CCCCC1NC(=O)C1(C)Cn2c(nc3ccccc32)C(=O)N1Cc1cccc(Cl)c1 (stereo not given) | i
87 | COc1ccc(-c2ccc(NC(=O)C3CCCC3)cc2)nn1 | i
88 | O=C(Cn1nc2n(CCc3ccccc3)c(=O)c3ccccc3n2c1=O)Nc1cc(F)ccc1F | i
89 | Cc1ccc(Cn2c(=O)c3ccccc3n3c(-c4ccc(F)c(F)c4)nnc23)cc1 | i
90 | CC(C)Cn1c(=O)c2ccc(C(=O)NC(C)C)cc2n2c(=O)n(CC(=O)N(C)c3ccc(F)cc3)nc12 | i

Continued:
nr | Molecule | Methyltransferases
91 | CCN1CCCC1CNC(=O)Cn1ccc2cc(S(=O)(=O)N3CCCCC3)ccc21 (stereo not given) | i
92 | CCOC(=O)C1CCCN(c2nc3c(S(=O)(=O)c4ccccc4)nnn3c3ccccc23)C1 (stereo not given) | i
93 | CC1(CCC(=O)N2CCCC2C(=O)Nc2ccccc2Oc2cccnc2)CC1 (stereo not given) | i
94 | CCCn1c(=O)c2ccccc2n2c(SCC(=O)N3CCN(c4ccccc4F)CC3)nnc12 | i

Some of the compounds tested; rates above refer to the full screens.
